# Sfp inh: blocks B. subtilis Sfp PPTase activity | Q9F4F7 | Biochemical Sfp PPTase activity, qHTS | Potency, µM, inactives show max response, negative = inhibition, hits mostly inhibitors | 3.5% of 310,000 active | AID 1490; active = well fitted inhibition curve with a large enough effect; inconclusive = small, poorly fitted or top-dose-only effect, or another doubt; inactive = no such curve, though single readings can be large or run the other way;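 also: the enzyme is Sfp with the accession as filed and its product quenches rhodamine fluorescence; potency is read from the fitted curve at half-maximal effect; 0% = enzyme reaction without inhibitor and -100% = no enzyme wells; top concentration of the series not given in the record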
#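 Sfp 15 nM + cpd, 15 min RT; start w/ rhodamine-CoA 5 uM, BHQ-2-YbbR 12.5 uM (final); 50 mM Hepes pH 7.6, 10 mM MgCl2, 0.01% NP-40, 0.01% BSA; read 525/598 nm at 0 and 30 min.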
# Menin-MLL FL inh: inhibitors of human menin-MLL interaction, wild-type MLL peptide | Fluorescence polarization, fluorescein-MLL peptide displacement from menin | 290,000 tested, under 10 active | FP activity change, % at 61.4 µM; inconclusive = falling polarisation curve, or a change in total fluorescence; inactive = total fluorescence flat and polarisation flat or rising; no compound was filed as active; the % refers to the polarisation; negative = inhibition;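 also: % of control where 0% means no effect; inhibitors lower the polarisation; unlabelled MLL peptide was the positive control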
# gsp antag: antagonizes gsp, the McCune-Albright syndrome mutation. Potency, µM (top dose mostly 76.9 µM), without a hit: at the highest dose activity change, negative = inhibition, most hits filed as inhibitors. 0.4% of 340,000 active. gsp-mutant cells, cAMP HTRF, 30 min; control for the full effect not named in the record; active = falling curve of any shape with a large fitted effect; inconclusive = falling curve, mostly with a smaller effect; inactive = flat or rising curve; cell line not stated here;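 also: intracellular cAMP measured with PDE inhibitor Ro 20-1724 present during compound exposure; potency is read from the fitted curve at half-maximal effect; % is scaled to controls: 0 for no effect and ±100 for the full control effect; nearly all actives have a fitted effect of over 65% in size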
#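 Cells in G418 medium, seeded 16-24 h, 37C; buffer exchange to DPBS + 1 mM CaCl2, 0.5 mM MgCl2, 0.05% BSA; cpds in DMSO + […] (300 uM stock), 30 min 37C; HTRF cAMP detection.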
# TRPML1 blocker: blocks the human TRPML1 channel; TRPML1-inducible cells, Ca2+ dye fluorescence, FDSS; stronger effect = lower value; inhibition of EC80 agonist-evoked calcium signal; activity change, negative = inhibition, % (no concentration beside the values); 0.02% of 390,000 active; Q9GZU1; AID 624415; in the data active means activity change below about -50%; inconclusive means about -30% to -50%; inactive means above about -30%;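 also: stimulus is agonist 54-4 at its EC80 concentration; % is scaled to controls: 0 for no effect and ±100 for the full control effect; compound concentration not given in the record; the text of the record puts the active cut at -80%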
#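 TRPML1-DL cells, Tet-induced overnight (~16 h, 37 °C) at 1,500 cells/well, were loaded with Ca8 no-wash dye plus quencher for 45-90 min at room temperature. Compounds were pinned during FDSS kinetic reading; agonist 54-4 at EC80 (4 uM final) then added.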
# TRPV1 PAM: potentiators of human vanilloid receptor 1 (TRPV1) | Q8NER1 | TRPV1-expressing cells, Fluo-8 calcium influx, capsaicin EC20 potentiation; host cell line not named in the record; control for the full effect not named in the record | potentiation, % at 8.33 µM | 0.02% of 320,000 active | AID 540277; active means potentiation above 80%; inconclusive means 30% to 80%; inactive means below 30%; also: 0% is about no effect
# Target sequence (Q8NER1 whole entry, looked up): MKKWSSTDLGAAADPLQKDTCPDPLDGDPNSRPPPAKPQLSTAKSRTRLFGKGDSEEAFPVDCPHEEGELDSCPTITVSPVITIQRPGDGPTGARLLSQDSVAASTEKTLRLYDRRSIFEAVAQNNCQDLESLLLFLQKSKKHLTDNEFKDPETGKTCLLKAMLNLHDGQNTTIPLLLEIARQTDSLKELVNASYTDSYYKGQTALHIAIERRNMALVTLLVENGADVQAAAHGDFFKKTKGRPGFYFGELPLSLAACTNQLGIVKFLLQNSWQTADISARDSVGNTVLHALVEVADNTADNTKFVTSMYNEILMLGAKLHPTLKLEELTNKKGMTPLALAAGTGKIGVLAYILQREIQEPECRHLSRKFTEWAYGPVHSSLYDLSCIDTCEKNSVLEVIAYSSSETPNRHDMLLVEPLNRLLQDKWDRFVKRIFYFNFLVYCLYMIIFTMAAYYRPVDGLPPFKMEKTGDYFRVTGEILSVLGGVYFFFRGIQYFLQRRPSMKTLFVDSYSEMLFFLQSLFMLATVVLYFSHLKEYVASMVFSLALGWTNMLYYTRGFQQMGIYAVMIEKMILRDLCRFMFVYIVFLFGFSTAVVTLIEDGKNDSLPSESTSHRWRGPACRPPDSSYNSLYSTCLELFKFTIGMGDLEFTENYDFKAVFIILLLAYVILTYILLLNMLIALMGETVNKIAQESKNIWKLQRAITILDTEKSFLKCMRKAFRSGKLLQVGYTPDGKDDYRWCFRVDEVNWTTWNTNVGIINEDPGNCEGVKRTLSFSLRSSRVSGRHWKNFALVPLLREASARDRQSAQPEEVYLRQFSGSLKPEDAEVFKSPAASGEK
#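 TRPV1-expressing cells were cultured overnight at 35.5C and loaded with Fluo-8 calcium dye for 40 to 90 min at room temperature. After a 10 s baseline, compound was added and calcium influx was read kinetically for 3 min (ex 480/em 520 nm).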
# ClpP mod: qHTS Assay for Activators of ClpP; ATP-dependent Clp protease proteolytic subunit (Bacillus subtilis (strain 168)), P80244; purified B. subtilis ClpP, FRET peptide cleavage, 20 min; Potency, µM (highest dose often 57.5 µM), for the others: top-dose activity change, negative = active; 1.9% of 340,000 active; AID 651965, 2013; active = well fitted falling curve with a large enough effect; inconclusive = small, poorly fitted or top-dose-only effect; inactive = no such curve, though single readings can be large or run the other way; also: potency is read from the fitted curve at half-maximal effect; the source files actives as falling curves though it sought activators and does not explain the sign; nearly all actives have a fitted effect of over 65% in size; many hits overshoot -100%
# Target sequence (P80244 whole entry, looked up): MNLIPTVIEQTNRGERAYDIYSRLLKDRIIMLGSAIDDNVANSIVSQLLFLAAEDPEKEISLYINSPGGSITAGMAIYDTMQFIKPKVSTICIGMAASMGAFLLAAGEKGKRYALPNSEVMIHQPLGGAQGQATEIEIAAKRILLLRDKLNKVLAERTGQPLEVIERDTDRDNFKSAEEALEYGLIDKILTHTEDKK
#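 Buffer: 100 mM Tris/HCl pH8, 100 mM KCl, 0.05% low protease BSA, 2.5% glycerol, 0.01% Tween-20. ClpP 10 microg/mL final; 20 min RT; delta FRET normalized to ADEP and DMSO controls.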
# gsp ag: agonists of gsp mutant (McCune-Albright syndrome) | 0.13% of 340,000 active | gsp mutant cells, cAMP HTRF, 30 min; control for the full effect not named in the record | Potency, µM (series often up to 76.9 µM), for the others: at the highest dose activation (cAMP increase), hits mostly activators; active = well fitted activation curve with a large enough effect; inconclusive = small, poorly fitted or top-dose-only effect, or another doubt; inactive = no such curve, though single readings can be large or run the other way; cell line not stated here;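 also: phosphodiesterase inhibitor Ro 20-1724 added with compounds to block cAMP breakdown; potency is read from the fitted curve at half-maximal effect; nearly all actives have a fitted effect of over 60% in size; about a fifth of the inactives were tested at one dose only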
#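 Cells stably selected in G418 were plated at 2000/well, grown 16-24 hr, then given compounds in DMSO with the PDE inhibitor […] (300 uM solution added) for 30 min at 37C; cAMP was read by HTRF.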
# * hit, by the source's call; ? = inconclusive; . = no result given; [ ] = another dose, or the depositor's remark.
Compound,Sfp inh,Menin-MLL FL inh,gsp antag,TRPML1 blocker,TRPV1 PAM,ClpP mod,gsp ag
Cc1cccc2sc(NNC(=O)c3cc(-c4cccs4)nc4ccccc34)nc12,?,1.2,-17%,-6,24,3.9%,7%
COc1cc2c(cc1OC)C(C)N(C(=O)c1ccc(Br)o1)CC2 (stereo not given),6%,0.4,20%,-15,23,-20%,5%
CCOc1ccccc1N=C1SCC(C)N1C(=O)C1CCN(c2ncnc3sc(C)c(C)c23)CC1 (stereo not given),.,.,-13%,12,.,-1.7%,31%
Nc1n[nH]c(N)c1N=Nc1ccc(Cl)cc1Cl,-18%,-3.9,5%,-3,1,-2.5%,7%
C=CC(=C)CC(NC)c1ccccc1 (stereo not given),4%,1.4,13%,7,0,-0.9%,18%
CC(=O)O[C@]1(C(C)=O)CCC2C3CCC4=C/C(=N/OCC(=O)O)CC[C@]4(C)C3CC[C@@]21C (stereo not given in full),3%,2.5,?,-2,23,1.5%,11%
COC(=O)c1ccccc1NC(=O)CN1CCC(C(=O)c2ccc3c(c2)OCCO3)CC1,3%,0.8,?,-2,-3,-6.7%,?
Cn1c(=O)c2c(SCC(=O)NCCc3ccccc3)nc(C3CC3)nc2n(C)c1=O,-2%,0.6,9%,9,9,0.7%,14%
C=CCN1CCN(C(=O)CCc2ccccc2)CC1,6%,-5.2,11%,-5,0,0.3%,5%[15.4 µM]
C=CCN(C/C(=N\O)c1sc(C(=O)OCC)nc1C)c1cccc(Br)c1,.,.,?,16,.,0.2%,-18%
Cc1ccc(-n2c(CC#N)n[nH]c2=S)c(C)c1,-29%,2.8,8%,2,12,-0.7%,4%[15.4 µM]
Cc1nnsc1SCC(=O)O,4%,2.9,2%,-14,-4,-2.8%,8%
C=CCN(C(=O)CNC(=O)c1ccco1)C(C(=O)NC1CCCC1)c1cccs1 (stereo not given),27%,-0.7,5%,6,6,.,?
CCOC(=O)c1nc(S(C)(=O)=O)ncc1N1CCOCC1,11%,-2.0,-1%,-3,0,-0.2%,2%
COc1ccc2ccccc2c1C1NC(=O)NC(C)=C1[N+](=O)[O-] (stereo not given),11%,2.1,-36%,6,8,0.2%,15%
COc1cccc(NC(=O)C2c3cc(OC)c(OC)cc3C(=O)N(C)C2c2cccnc2)c1 (stereo not given),14%,1.0,-1%,0,1,0.8%,-7%
O=C(CN1CCC2(CC1)OCCO2)c1ccc2cc[nH]c2c1,5%,0.7,3%,2,-5,32µM*,-16%
CCOC(=O)CCc1c(C)c2ccc(OCc3cc([N+](=O)[O-])ccc3OC)cc2oc1=O,-27%,1.0,-1%,-2,-4,-9.4%,-31%[inhibitor]
COC(=O)C(Cc1ccccc1)NC(=O)c1ccc(C)cc1 (stereo not given),15%,-1.9,?,2,-26,-1.2%,-23%
Cc1sc2nc3n(c(=O)c2c1C)CCCCC3,19%,-0.3,-2%,9,6,1.1%,-18%
Cc1cc(C)nc(SCC(=O)c2ccc(Cl)cc2)n1,2%,3.7,9%,-8,7,0.0%,-7%[15.4 µM]
CCN(C(=O)COC(=O)CNC(=O)c1cccc(C)c1)c1c(N)n(Cc2ccccc2)c(=O)[nH]c1=O,.,.,6%,-6,3,-0.2%,27%
Cc1cc(C)cc(N2CN=C3SCC(=O)N3C2)c1,14%,2.2,2%,-11,16,0.9%,-5%
CC(C)[C@H](NS(=O)(=O)c1cccc(C(F)(F)F)c1)C(=O)OCC(=O)NC(=O)NCc1ccco1,.,.,-20%,9,.,-26%,-3%[15.4 µM]
C[C@H](CO)N1C[C@H](C)[C@@H](CN(C)C(=O)Nc2ccccc2)Oc2ccc(NC(=O)NC3CCCCC3)cc2C1=O,.,.,1%,8,.,-2.2%,.
C=CCSc1nc2ccccc2n1S(=O)(=O)c1ccc(C)cc1,9%,1.7,5%,3,-4,-4.8%,-15%
O=C1C2C3C=CC(CC3)C2C(=O)N1c1nccs1 (stereo not given),-14%,0.9,11%,28,4,-0.5%,-41%[inhibitor]
c1ccc2c(c1)Oc1cccc3cccc-2c13,1%,-6.7,-4%,2,?,3.7%,25%
Cc1nc(SCC(=O)N2c3ccccc3Sc3ccccc32)n[nH]1,11%,4.7,-9%,-9,-8,-2.8%,10%
COc1cccc(CN(C(=O)Cc2c[nH]c3ccccc23)C(C(=O)NC2CCCCC2)c2ccc(C)o2)c1 (stereo not given),9%,2.5,-8%,5,1,-1.8%,-36%[inhibitor]
CSCC[C@H](NC(=O)c1ccc(Cl)c(S(=O)(=O)N2CCCC2)c1)c1nc2ccccc2[nH]1,-1%,1.4,2%,3,14,-3.0%,12%
Cc1ccc(C(=O)N(Cc2ccc3c(c2)OCO3)Cc2nc3ccccc3c(=O)[nH]2)cc1,-3%,0.2,-6%,-3,-8,-0.2%,-5%
O=C(Oc1ccc(F)cc1)c1cccnc1,6%,-11,2%,-8,-5,1.6%,-6%
CC(C)(C)NC(=O)c1nc2ccccc2s1,1%,6.6,-7%,-4,3,-2.0%,?
O=C(O)/C=C/c1cccc(NC(=O)c2ccc(Cl)cc2)c1,?,2.5,-5%,12,4,.,9%[15.4 µM]
CCN(C(=O)CSc1nc2ccccc2n1CCc1ccccc1)C1CCS(=O)(=O)C1 (stereo not given),-10%,-0.3,-11%,-8,-7,-1.3%,-7%
CN1CCC(NC(=O)NC2CCCCC2)CC1,11%,-2.4,6%,-10,-3,-2.2%,25%
CC(C)c1csc(CN2CCN(Cc3ccc(F)cc3)C(CCO)C2)n1 (stereo not given),-17%,1.6,12%,-11,24,.,-3%[15.4 µM]
O=C(Cn1ccc2ccccc2c1=O)NCC(=O)N1CCCCC1,13%,-3.2,-1%,-1,11,.,-5%
Cc1nc(-c2ccc(Cl)cc2)sc1C(=O)O,12%,-0.8,-17%,9,-8,0.1%,9%[15.4 µM]
NC(=O)/C(=C/c1ccco1)NC(=O)c1ccc(Br)o1,.,.,1%,-4,.,-7.1%,-32%[inhibitor]
CCCCCCNC(=O)CCCCCNS(=O)(=O)c1ccc(Br)cc1,22%,0.5,-28%,-1,21,.,13%[15.4 µM]
COc1cc(C(=O)O/N=C(\N)Cc2ccc([N+](=O)[O-])cc2)cc(OC)c1OC,3%,-1.2,-10%,-2,-7,-0.9%,-2%[15.4 µM]
CCOC(=O)c1ccccc1NC(=O)c1nc2nccc(C)n2n1,6%,1.1,-3%,4,?,0.2%,-19%
CC(=O)N1CCN(c2ccc(NC(=O)c3ccc([N+](=O)[O-])cc3)cc2)CC1,-11%,-0.4,-4%,-10,-3,.,-101%[inhibitor]
O=C(CSc1ncn[nH]1)Nc1c(Br)cc([N+](=O)[O-])cc1Br,6%,-2.3,15%,-19,6,0.7%,6%[15.4 µM]
COc1cc2c(cc1OC)C(=O)N1[C@H]3c4cc(Cl)ccc4OC[C@@H]3[C@H](c3ccccc3)[C@]1(C)C(=O)N2,.,.,-9%,-2,-21,-28%,-2%
COc1ccc(N(C)S(=O)(=O)c2cccc(C(=O)N(C)Cc3ccc(C)o3)c2)cc1,-10%,1.6,-7%,14,-6,.,2%[15.4 µM]
CCC1CCc2c([nH]c3ccccc3c2=O)O1 (stereo not given),19%,0.9,12%,-8,-5,-8.1%,-7%[15.4 µM]
O=C(Nc1cc(S(=O)(=O)N2CCOCC2)ccc1OCC(F)(F)F)C1=COCCO1,.,.,-1%,-6,-2,-3.7%,?
O=C(CSc1nc2ccc(Cl)cc2[nH]1)NCc1ccco1,2%,-3.2,-1%,-7,-7,-1.8%,-14%[15.4 µM]
COc1cccc(/C=N\Nc2nncc(-c3ccccc3)n2)c1,-9%,-1.0,2%,5,.,-0.1%,-9%
CCOC(=O)/C=C1\SCC(=O)N1CC(=O)Nc1ccc(OC)c(OC)c1,9%,8.4,14%,-5,5,-7.6%,17%
O=C(CSc1nnnn1-c1ccccc1)Nc1ncc2c(n1)CC(c1ccccc1)CC2=O (stereo not given),19%,1.8,2%,-14,1,-0.2%,0%
Cc1cc(C(=O)N2CCc3ccccc32)c2cc(F)ccc2n1,7%,-0.8,-1%,-18,-2,-3.7%,-9%
CCOC(=O)c1c(C)cc(C)n2c1nc1ccccc12,15%,5.2,6%,-15,5,-18%,-5%

# (listing goes on)
Compound,Sfp inh,Menin-MLL FL inh,gsp antag,TRPML1 blocker,TRPV1 PAM,ClpP mod,gsp ag
CC(C)c1c(C(=O)N/N=C/C2CC=CCC2)nnn1-c1nonc1N (stereo not given),11%,.,3%,26,-38,-0.7%,6%
O=S(=O)(Cc1cccc(C(F)(F)F)c1)c1ncn[nH]1,-1%,2.6,3%,3,10,.,-26%
Cc1ccc(C(C)C)c(OCc2nnc(SCC(=O)Nc3nccs3)n2C)c1,25%,4.7,6%,28,1,-1.2%,-43%[inhibitor]
COc1cccc(CN2CC(C(=O)N(C)Cc3ccc(C)cc3)CCC2=O)c1 (stereo not given),8%,-0.5,0%,-6,3,-0.7%,20%
CC(C)n1ncc2c(C(=O)N3CCN(c4ccccc4)CC3)cc(-c3ccccc3)nc21,.,.,-15%,19,1,-28%,0%
COc1ccc(-c2noc(C3CCCN(S(=O)(=O)c4ccc(C)c(Cl)c4)C3)n2)cc1OC (stereo not given),-3%,1.5,-5%,-2,7,-4.9%,-52%[inhibitor]
COc1ccc(NC(=O)N(C)C[C@H]2Oc3ccc(NC(=O)C4CC4)cc3CC(=O)N([C@@H](C)CO)C[C@@H]2C)cc1,.,.,8%,12,.,0.0%,.
O=C(CCCN1C(=O)/C(=C/c2ccccc2Cl)SC1=S)Nc1cccnc1,4%,.,-31%,4,14,1.0%,?

# Compound activity (PubChem BioAssay)
